# miR-21 FLuc: qHTS Assay for Modulators of miRNAs and/orActivators of miR-21 | HeLa miR-21 FLuc reporter, luciferase, 48 h | Potency, µM (doses to about 38.3 µM), for inactives: at the highest dose reporter change, positive = more light | 340,000 tested, under 10 active | AID 2288, 2010; active = well fitted rising curve with a large enough effect; inconclusive = small, poorly fitted or top-dose-only effect; inactive = no such curve, though single readings can be large or run the other way;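 note: % of control where 0% means no effect; miR-21 action dims this reporter so a rising signal means less miR-21 action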
#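 HeLa cells endogenously expressing miR-21, stably carrying CMV-driven firefly luciferase with a downstream miR-21 binding site, 2000 cells/well. Titrations up to approximately 40 uM, 48 hours; luciferase luminescence read.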
# Active calls of the source: *; ? = inconclusive. The list is partial. The share of hits here may be higher or lower than overall.
no.	compound	miR-21 FLuc
1	COc1cc(Cl)c(C)cc1NC(=O)Cn1cnc2sc(C)c(S(=O)(=O)N3CCCCC3)c2c1=O	?
2	CCOc1ccc(S(=O)(=O)NCC(c2ccco2)S(=O)(=O)c2ccc(F)cc2)cc1 (stereo not drawn)	4%
3	COCCn1c(CNC(=O)c2ccccc2C)nc2cccnc21	0%
4	CCOC(=O)CSc1nc2c(sc3ccccc32)c(=O)n1CCO	-19%
5	COc1ccccc1-n1ncc2c(=O)[nH]c(SCC(=O)Nc3ccc(Cl)cc3)nc21	6%
6	COc1cc2nc(Nc3cccc(C)c3)nc(N)c2cc1OC	-31%
7	Cc1cc(C)cc(NC(=O)CCc2nnc3n(CC(C)C)c(=O)c4ccccc4n23)c1	-2%
8	CCOC(=O)C1CCC(CN(Cc2ccc(Cl)cc2)S(=O)(=O)c2cccc(Cl)c2C)CC1 (stereo not drawn)	1%
9	COCCNc1ccc(-c2nc(-c3cccc(C)c3)no2)cc1[N+](=O)[O-]	-22%
10	O=C(Nc1cc(-c2nc3ccccc3o2)ccc1Cl)c1ccc(N2CCCCC2)c([N+](=O)[O-])c1	-41%
11	CCn1c2c(c(=O)n3ncc(C(=O)Nc4cccc(Cl)c4C)c13)CN(Cc1ccc(OC)cc1)CC2	-2%
12	COc1ccc(CNC(=O)CSc2nc(-c3ccc(OC)cc3)cc(C(F)(F)F)n2)cc1	-5%
13	COc1ccc(-c2nn3c(=O)cc(CN4CCN(C(=O)c5ccc(C(C)(C)C)cc5)CC4)nc3s2)cc1	-5%
14	CCN1CCN(c2csc3ccc(C)cc3c2=O)CC1	-29%
15	Cc1ccc(-c2noc(CSc3nnc(C)n3-c3ccc(C)cc3)n2)cc1	-5%
16	CCOC(=O)C(Cc1c[nH]c2ccccc12)NC(=O)COc1ccc(CC)cc1 (stereo not drawn)	-5%
17	COc1cc(-c2cc(OC)c3c(C)oc(C)c3c(=O)c2)ccc1OC(=O)c1ccccc1F	-17%
18	CCOC(=O)C1CCN(C(=O)Cn2nc(CC)n3c(cc4sccc43)c2=O)CC1	-1%
19	COc1ccc(S(=O)(=O)NCCc2sc(-c3cccnc3)nc2C)c(F)c1	-10%
20	Cc1ccc(NC(=O)c2oc3ccccc3c2NC(=O)c2cc3ccccc3o2)cc1	-2%
21	COc1cccc(C(=O)Nc2cc3c(cc2C(=O)c2ccc(C)cc2)OCCO3)c1	3%
22	COCCCn1c(=N)c(C(=O)NCc2cccnc2)cc2c(=O)n3cccc(C)c3nc21	1%
23	CCCNC(=O)c1cc2n(n1)CCCN(Cc1ccc(F)cc1)C2=O	1%
24	CCc1ccc(S(=O)(=O)c2nnn3c2nc(Nc2cccc(C)c2C)c2sccc23)cc1	-3%
25	CCOC(=O)c1cccc(Nc2nc(C(=O)OCC)nc3ccccc23)c1	15%
26	Cc1c2cnn(-c3ccccc3)c(=O)c2c(C)n1CCCC(=O)Nc1cc(F)ccc1F	11%
27	COc1cccc(CN2C(=O)c3ccccc3C2C(=O)NCCc2ccc(OC)c(OC)c2)c1 (stereo not drawn)	-3%
28	Cc1ccc(OCc2ccc(-c3nc(C#N)c(NCc4cccnc4)o3)o2)cc1	10%
29	Cc1ccc(NC(=O)NCCc2c(C)nn(C)c2C)cc1Cl	-43%
30	CCCCC1CCC(C(=O)N2CC(=O)Nc3ccc(Br)cc3C2c2ccc(F)cc2)CC1 (stereo not drawn)	?
31	CC(C)c1ccc(NC(=O)c2ccc(F)c(S(=O)(=O)N3CCN(c4ccccc4F)CC3)c2)cc1	1%
32	CCc1ccc(C2CC(=O)Oc3c2c(=O)n(C)c2ccccc32)cc1 (stereo not drawn)	-1%
33	COc1ccc(Cl)cc1NC(=O)CSc1nc(-c2ccccc2)c2ccccc2n1	3%
34	CCOC(=O)C1CCCN(CC(=O)Nc2cc(C)c3c(=O)oc4ccccc4c3n2)C1 (stereo not drawn)	2%
35	Cc1ccc2sc(N(Cc3cccnc3)C(=O)CCOc3ccccc3)nc2c1C	-1%
36	CCOC(=O)c1c(C)[nH]c(C)c1S(=O)(=O)N1CCCC(C(=O)N2CCN(c3ccccc3F)CC2)C1 (stereo not drawn)	0%
37	COc1ccc(CNC(=O)CN2C(=O)CSc3ccc(S(=O)(=O)N(C)C)cc32)cc1	-2%
38	COc1ccc(NS(=O)(=O)c2ccc(NS(=O)(=O)c3ccc4c(c3)OCCO4)cc2)cc1	-3%
39	COc1ccc(NC(=O)CSc2nccn2C2CCCC2)cc1OC	6%
40	COc1ccc(N2CCN(C(=O)Cc3coc4ccc(C)cc34)CC2)cc1	4%
41	CCC(=O)N1c2ccccc2CC1C(=O)NCc1ccccc1C (stereo not drawn)	6%
42	CCCOc1ccc(C2C(=O)N(C3CCC(C)CC3)CC(=O)N2CCC2=CCCCC2)cc1OC (stereo not drawn)	-2%
43	COc1ccc(NC(=O)C(NC(=O)Cc2cccs2)c2ccc(OC)cc2)cc1 (stereo not drawn)	1%
44	Cc1nc2ccn(Cc3ccco3)c(=O)c2cc1C(=O)N1CCN(c2ccccc2)CC1	0%
45	COc1cc(-c2cc(OC)c3c(C)oc(C)c3c(=O)c2)ccc1OC(=O)c1ccccc1Cl	-14%
46	CC(=O)N1CCN(c2csc3ccc(F)cc3c2=O)CC1	-5%
47	COc1cccc(C(=O)Nc2c3c(nn2-c2ccc(C)cc2C)CS(=O)(=O)C3)c1OC	11%
48	COc1ccc(CCNC(=O)c2cc(Nc3ccccc3)nc3ccccc23)cc1OC	26%
49	CCc1c(C)sc2c1CCN(C(=O)Nc1ccccc1Cl)C2c1ccc(OC)cc1 (stereo not drawn)	-3%
50	CSc1cccc(NC(=O)C2CCN(S(=O)(=O)c3ccc4[nH]c(=O)ccc4c3)CC2)c1	1%
51	Cc1ncc(CO)c2c1Oc1nc(-c3ccccc3Cl)nc(SCc3ccccc3F)c1C2	-2%
52	COc1cc(OC)c(NC(=O)c2cc(C)nc3c2c(C)nn3-c2ccc(C)cc2)cc1Cl	-1%
53	Cc1ccc(CN2CCSc3ccc(C(=O)NCC(C)c4ccccc4)cc32)cc1 (stereo not drawn)	-1%
54	O=C(c1ccccc1)c1ccccc1NC(=O)c1ccccc1C(=O)O	-3%
55	COc1cccc(NC(=O)C2CCN(S(=O)(=O)c3cccc4nonc34)CC2)c1	0%
56	Cc1ccc2[nH]c(CSc3nnc(NC(=O)c4ccc(Cl)cc4)s3)cc(=O)c2c1	-11%
57	CCc1nnc(SCc2cccc(Cl)c2)c2cc3sccc3n12	-13%
58	CC1CCN(S(=O)(=O)c2ccc3c(ccc(=O)n3CC(=O)Nc3cccc(F)c3)c2)CC1	11%
59	COc1ccc(CNC(=O)c2cc3c(=O)n(Cc4ccc(OC)cc4)ccc3nc2C)cc1	15%
60	CC(C)c1ccc(S(=O)(=O)N2CCN(CC(=O)c3ccc(O)c(O)c3)CC2)cc1	0%

# Three of these compounds, set out differently.
38) COc1ccc(NS(=O)(=O)c2ccc(NS(=O)(=O)c3ccc4c(c3)OCCO4)cc2)cc1
  miR-21 FLuc: -3%
54) O=C(c1ccccc1)c1ccccc1NC(=O)c1ccccc1C(=O)O
  miR-21 FLuc: -3%
58) CC1CCN(S(=O)(=O)c2ccc3c(ccc(=O)n3CC(=O)Nc3cccc(F)c3)c2)CC1
  miR-21 FLuc: 11%

# (cont.)
no.	compound	miR-21 FLuc
61	COc1cc(NC(=O)c2nc(-c3ccc(Cl)cc3)n3c2CCCCC3)cc(OC)c1OC	16%
62	COc1ccc(N(C)C(=O)CCn2cnc3onc(-c4ccc(F)cc4)c3c2=O)c(OC)c1	14%
63	COCCCNC(=O)CSc1nc(-c2ccccc2)[nH]c1-c1ccc(C)cc1	14%
64	CCCCN1CCc2nc(N3CCN(C)CC3)ncc2C1	-6%
65	CCOC(=O)c1c(C)[nH]c(CCC(=O)Nc2cc(C)cc(C)c2)c1C	-2%
66	CCCN1CCN(CC2=C(C(=O)OCC)C(c3ccc(Cl)cc3)NC(=O)N2)CC1 (stereo not drawn)	11%
67	CCc1ccc(NS(=O)(=O)c2ccc3[nH]cc(C(=O)N4CCCCCC4)c(=O)c3c2)cc1	-11%
68	Cc1ccc(C)c(Nc2nc3c(S(=O)(=O)c4ccc(C(C)C)cc4)nnn3c3ccsc23)c1	?
69	COc1ccc(CN(C)c2ccc(-c3nc(C)no3)cc2[N+](=O)[O-])cc1	-7%
70	O=C(Nc1ccc(F)c(Cl)c1)C1CCN(C(=O)c2ccc(F)cc2)CC1	2%
71	Cc1ccccc1OCC(=O)Nc1sc2c(c1C(=O)OC(C)C)CCCC2	-3%
72	COc1cc(CN(C(=O)COc2ccc(Br)cc2)c2ccccn2)cc(OC)c1OC	-5%
73	COc1ccc(CC(=O)NCC(c2cccs2)S(=O)(=O)c2ccc(F)cc2)cc1 (stereo not drawn)	4%
74	CC(C)c1ccc(OCC(=O)Nc2c(C(=O)c3ccc(F)cc3)oc3ccccc23)cc1	5%
75	CCOc1cc(C(=O)Nc2ccc(-c3nnc4n3CCCCC4)cc2)cc(OCC)c1OCC	-6%
76	COc1ccc(NC(=O)c2nnn(Cc3nc(-c4cc(OC)c(OC)c(OC)c4)oc3C)c2C)cc1Cl	0%
77	Cc1ccc(CSC2=Nc3ccccc3C3=NC(CC(=O)NC4CCCCC4)C(=O)N23)c(C)c1 (stereo not drawn)	4%
78	Cc1ccc(C(C)C)c(OC(C)C(=O)NCC2(N(C)C)CCCCC2)c1 (stereo not drawn)	25%
79	O=C(NCCCN1CCN(c2ccccc2F)CC1)C1COc2ccccc2C1 (stereo not drawn)	0%
80	CCc1cccc(C)c1NC(=O)C(C)Sc1nc2c(c(=O)[nH]1)CCCC2 (stereo not drawn)	-1%
81	CCN(CC)c1ccc2cc(-c3nc(-c4ccccc4)no3)c(=O)oc2c1	-37%
82	CCc1cnc2c(c1SCC(=O)c1ccc(OC)cc1)c(=O)n(C)c(=O)n2C	1%
83	COc1ccc(-c2nc(CSCC(=O)N3CCN(c4ccccc4)CC3)c(C)o2)cc1	?
84	CCC(=O)N1CCc2cc(S(=O)(=O)CCC(=O)Nc3cc(Cl)ccc3OC)ccc21	-1%
85	Cc1cc(C)c2c(-n3cccc3)c(C(=O)NCCCN3CCCCC3)sc2n1	-9%
86	COc1cccc2sc(N3CCN(C(=O)CS(=O)(=O)c4ccc(Cl)cc4)CC3)nc12	24%
87	CC(C)NS(=O)(=O)c1ccc2nc(NC(=O)c3cncc(Br)c3)sc2c1	0%
88	CCOc1ccccc1CNc1ccc2cc(S(=O)(=O)N3CCC(C)CC3)ccc2n1	5%
89	O=C(NCCc1ccccc1)c1ccc(CSc2nc3cccnc3n2Cc2ccccc2F)cc1	-17%
90	CC(C)N(Cc1ccccc1)C(=O)Cn1ncc2c3ccccc3n(Cc3ccccc3)c2c1=O	-1%
91	Cc1c(Cl)cccc1NC(=O)CSc1nc2ncccc2o1	-23%
92	COc1ccc(C(=O)n2nc(-c3ccco3)nc2NCc2cccs2)cc1OC	-26%
93	Cc1ccc(OCC(=O)Nc2ccc(Cl)c(-c3nc4ncccc4o3)c2)c(C)c1	-6%
94	Clc1ccc(CN2CCC(CNc3ncnc4onc(-c5ccc(Cl)cc5)c34)CC2)cc1	19%
95	COc1cc(CNC(=O)c2cc3n(n2)CCCN(Cc2cccc(F)c2)C3=O)cc(OC)c1OC	0%
96	Cc1ccc(-n2ccnc(NCc3ccccc3)c2=O)cc1C	-17%
97	COc1ccc(CCNC(=O)c2ccc(Nc3nc4ccccc4n4nnnc34)cc2)cc1OC	8%
98	Oc1ccc(NCc2ccccc2OCc2ccc(Cl)cc2)cc1	16%
99	Fc1ccc(Nc2c3c(nc4nncn24)CCC3)cc1	-22%
100	Cc1cccc(C(=O)Nc2ccc(-c3nc4ccccc4s3)c(C)c2)c1	-37%
101	Cc1ccc(NC(=O)Cn2cc(S(=O)(=O)Cc3cccc(Cl)c3)c3ccccc32)cc1C	-1%
102	Cc1cccc2c(=O)cc(CSc3ccccc3NC(=O)C(C)C)[nH]c12	0%
103	COc1ccc(/C=C/C(=O)Nc2nc3n(n2)C(c2ccccc2)C=C(c2ccc(Cl)cc2)N3)cc1 (stereo not drawn)	7%
104	COc1ccc(C(=O)Nc2c(C(=O)c3ccccc3)oc3ccccc23)cc1	-3%
105	COc1ccc(Cl)cc1NC(=O)COC(=O)CC(C)(C)CC1=NS(=O)(=O)c2ccccc2N1	21%
106	COc1ccccc1C(=O)Nc1nc2nc(C)c(Cc3ccccc3)c(=O)n2[nH]1	2%
107	CCCc1nn2c(=O)cc(COC(=O)c3ccccc3NC(=O)c3ccc(Cl)cc3)nc2s1	0%
108	Cc1ccc(C(=O)N2CCc3cc(CNC(=O)c4ccnn4C)ccc32)cc1	26%
109	Cc1cccc(OCC(=O)N(Cc2ccc(N(C)C)cc2)Cc2ccco2)c1C	21%
110	Cn1c(CN2CCOCC2)nc2cc(NC(=O)c3ccccc3[N+](=O)[O-])ccc21	-2%
111	Cc1ccc(-c2cc(NC(=O)COc3ccc(Cl)cc3C)on2)cc1	-43%
112	COc1ccc(Br)cc1[C@@H]1Nc2ccc(C(=O)O)cc2[C@@H]2C=CC[C@@H]21	4%
113	O=c1c(N2CCN(c3cccc(Cl)c3)CC2)csc2ccccc12	-10%
114	O=C(Nc1cccc(C(F)(F)F)c1)c1ccc(F)c(S(=O)(=O)N2CCc3ccccc3C2)c1	13%
115	COc1ccc(N2CCN(S(=O)(=O)CCNC(=O)COc3ccccc3F)CC2)cc1	-3%

# Rewritten as labelled records: 2 of the compounds above
[102] Cc1cccc2c(=O)cc(CSc3ccccc3NC(=O)C(C)C)[nH]c12
  miR-21 FLuc: 0%
[103] COc1ccc(/C=C/C(=O)Nc2nc3n(n2)C(c2ccccc2)C=C(c2ccc(Cl)cc2)N3)cc1 (stereo not drawn)
  miR-21 FLuc: 7%
